Screens (PubChem)
Hedgehog inh – Sonic Hedgehog pathway inhibition. Shh-LIGHT2 Gli-luciferase reporter, 30 h. inhibition, % (concentration not given with the values). 22,000 tested, 2.1% active. AID 2313;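 active = replicate mean of 65% or more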;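 note: pathway switched on by Shh-conditioned medium diluted 1 in 25 in low serum; 100 nL library stock added to about 40 µL; 0% = median of neutral wells and 100% = positive control level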
MITF inh – blocks MITF activity | inhibition, % (concentration not given with the values) | 37,000 tested, 0.28% active | TRPM1 promoter luciferase, luminescence, 24 h | AID 2240;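 active = most replicates at 85% or more, or half of them and the mean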;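 note: human melanocyte line stably carrying TRPM1 promoter luciferase reporter; 0% = vehicle wells and 100% = a positive control; the first replicate is given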
PD-1 reverse act – reversal of PD-1 mediated T-cell inhibition | activation, % (concentration not given with the values) | 29,000 tested, under 10 active | AID 2316 | primary human CD4 T cells, PD-L1 beads, CellTiter-Glo 96 h;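 active = replicate mean of 50% or more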;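 note: 0% = median vehicle wells and 100% = positive control; 100 nL library stock added to about 50 µL; numbers are from one replicate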
YB-1 expr inh – YB-1 expression inhibition; U2OS, qRT-PCR YB-1 vs CDIP delta delta Cp, 16 h; active compounds read high; zero = DMSO, each unit about twofold; 30,000 tested, 0.37% active; delta delta Cp (YB-1 minus CDIP) (test concentration not listed);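 active = delta delta Cp rounded down to an integer at or above 3, about 3 SD of DMSO wells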;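 note: higher means less YB-1 transcript or more CDIP transcript relative to DMSO; stock transfer was 100 nL into about 100 µL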
Numbers without * were called inactive; / = no result given.

item | molecule | MITF inh | Hedgehog inh | YB-1 expr inh | PD-1 reverse act
1 | O=C(CSc1nnc(C23CC4CC(CC(C4)C2)C3)o1)Nc1ccc(N2CCOCC2)c(Cl)c1 | 4 | / | / | -3.3
2 | O=C(O)c1oc(C(=O)O)c(OCc2ccccc2)c1OCc1ccccc1 | 8 | -13 | -0.23 | 1.5
3 | COc1ccc(NC(=O)Nc2cccc3c2O[C@@H](CN(C)Cc2ccc(C(=O)O)cc2)[C@H](C)CN([C@@H](C)CO)C3=O)cc1 | 1 | -11 | 0.034 | 1.5
4 | Cc1ccc(S(=O)(=O)N(C)C[C@H]2Oc3ccc(NC(=O)CCN4CCOCC4)cc3CC(=O)N([C@@H](C)CO)C[C@H]2C)cc1 | 1 | -15 | 0.37 | 0.3
5 | COc1ccc(Cl)c(Cn2c(NCc3ccco3)nc3c2c(=O)n(C)c(=O)n3C)c1 | -17 | / | / | 0.2
6 | CC(=O)Oc1c(-c2ccccc2)oc2c(CC=C(C)C)c3c(c(OC(C)=O)c2c1=O)C=CC(C)(C)O3 | 3 | -9 | 0.17 | /
7 | CSc1nc2ccccc2c(=O)n1C | -29 | -5 | 0.16 | -0.2
8 | Cc1noc(C)c1NC(=O)Nc1cccc2c1O[C@@H](CN(C)S(=O)(=O)c1ccccc1)[C@H](C)CN([C@@H](C)CO)C2=O | 1 | 4 | 0.061 | 1.0
9 | C[C@@H]1CN([C@H](C)CO)C(=O)c2cc(NC(=O)Nc3ccc(C(F)(F)F)cc3)ccc2O[C@@H]1CN(C)C(=O)Nc1ccc(C(F)(F)F)cc1 | 55 | -51 | 0.15 | /
10 | Cc1onc(-c2c(Cl)cccc2Cl)c1C(=O)N[C@@H]1C(=O)N2[C@@H]1SC(C)(C)[C@@H]2C(=O)O | 17 | -6 | -0.034 | /
11 | CC1CCCCN1C(=S)Nc1ccc(S(=O)(=O)N2CCCCC2)cc1 (stereo unspecified) | 12 | -24 | 0.29 | -0.9
12 | O=C(CC(C(=O)O)N1CCCCC1)Nc1ccccc1 (stereo unspecified) | -15 | / | / | 2.7
13 | C[C@@H]1CN([C@@H](C)CO)C(=O)c2cc(NS(=O)(=O)c3ccc(Cl)cc3)ccc2O[C@@H]1CN(C)S(C)(=O)=O | -9 | 0 | 0.27 | 2.1
14 | CNC[C@H]1Oc2ccc(NC(=O)NC3CCCCC3)cc2CC(=O)N([C@H](C)CO)C[C@H]1C | 1 | / | -0.52 | 0.3
15 | C[C@H](CO)N1C[C@H](C)[C@@H](CN(C)S(=O)(=O)c2cn(C)cn2)Oc2c(NC(=O)C3CC3)cccc2C1=O | -4 | -18 | -0.014 | 1.3
16 | COc1ccc(C(=O)Nc2ccc(Cl)cc2C(=O)NCCN2CCOCC2)cc1 | 6 | / | / | -1.0
17 | C[C@H](CO)N1C[C@H](C)[C@H](CN(C)C(=O)Nc2cccc3ccccc23)Oc2c(NC(=O)C3CCOCC3)cccc2C1=O | 5 | -25 | -1.1 | 0.0
18 | COc1ccc(S(=O)(=O)N(C)C[C@@H]2OCCCC[C@@H](C)Oc3ccc(NC(=O)NC(C)C)cc3C(=O)N([C@H](C)CO)C[C@@H]2C)cc1 | 0 | -18 | 0.092 | /
19 | C[C@@H]1CN([C@@H](C)CO)C(=O)c2cccc(NC(=O)c3cnccn3)c2O[C@@H]1CN(C)Cc1ccc2c(c1)OCO2 | -7 | 2 | 0.095 | -0.4
20 | N#CC1=C(N)Nc2onc(-c3cccc(O)c3)c2C1c1ccccc1 (stereo unspecified) | 50 | 7 | 0.099 | -2.0
21 | C[C@H](CO)N1C[C@H](C)[C@H](CN(C)C)Oc2ccc(NS(=O)(=O)c3ccccc3)cc2C1=O | 5 | 6 | 0.042 | /
22 | C[C@H]1CN([C@@H](C)CO)C(=O)Cc2cc(NC(=O)Nc3ccccc3)ccc2O[C@H]1CN(C)Cc1ccc(C(=O)Nc2ccccc2N)cc1 | 29 | / | -0.42 | -3.9
23 | COC(=O)c1ccccc1NC(=O)c1ccc(Cl)c(S(=O)(=O)Nc2ccc(C)cc2C)c1 | 12 | / | / | -0.5
24 | Cc1cc(I)ccc1NC(=O)CN(c1ccc(Cl)c(Cl)c1)S(C)(=O)=O | -2 | / | / | 0.4
25 | Cc1noc(C)c1S(=O)(=O)Nc1cccc2c1O[C@H](CN(C)Cc1ccc(Oc3ccccc3)cc1)[C@H](C)CN([C@H](C)CO)C2=O | 7 | -18 | -0.88 | /
26 | Cc1noc(C)c1S(=O)(=O)Nc1ccc2c(c1)CC(=O)N([C@H](C)CO)C[C@@H](C)[C@H](CN(C)C)O2 | -9 | -23 | -0.046 | -0.3
27 | Cc1cccc(NC(=O)CNS(=O)(=O)c2ccc(Br)cc2)c1C | 2 | / | / | -0.5
28 | C[C@@H]1CN([C@H](C)CO)C(=O)c2cc(NC(=O)Nc3ccc(F)cc3)ccc2O[C@@H]1CN(C)C(=O)Nc1ccccc1 | -5 | -9 | 0.091 | -0.5
29 | CC(C)NC(=O)N(C)C[C@@H]1Oc2c(NS(=O)(=O)c3cn(C)cn3)cccc2C(=O)N([C@@H](C)CO)C[C@H]1C | -14 | -15 | 0.072 | 2.6
30 | C[C@H]1CN([C@@H](C)CO)C(=O)c2cc(NC(=O)Nc3ccc(F)cc3)ccc2O[C@@H]1CN(C)S(C)(=O)=O | -3 | -34 | -0.41 | 0.6

Compounds 22 to 30, reprinted for reference:
item | molecule | MITF inh | Hedgehog inh | YB-1 expr inh | PD-1 reverse act
22 | C[C@H]1CN([C@@H](C)CO)C(=O)Cc2cc(NC(=O)Nc3ccccc3)ccc2O[C@H]1CN(C)Cc1ccc(C(=O)Nc2ccccc2N)cc1 | 29 | / | -0.42 | -3.9
23 | COC(=O)c1ccccc1NC(=O)c1ccc(Cl)c(S(=O)(=O)Nc2ccc(C)cc2C)c1 | 12 | / | / | -0.5
24 | Cc1cc(I)ccc1NC(=O)CN(c1ccc(Cl)c(Cl)c1)S(C)(=O)=O | -2 | / | / | 0.4
25 | Cc1noc(C)c1S(=O)(=O)Nc1cccc2c1O[C@H](CN(C)Cc1ccc(Oc3ccccc3)cc1)[C@H](C)CN([C@H](C)CO)C2=O | 7 | -18 | -0.88 | /
26 | Cc1noc(C)c1S(=O)(=O)Nc1ccc2c(c1)CC(=O)N([C@H](C)CO)C[C@@H](C)[C@H](CN(C)C)O2 | -9 | -23 | -0.046 | -0.3
27 | Cc1cccc(NC(=O)CNS(=O)(=O)c2ccc(Br)cc2)c1C | 2 | / | / | -0.5
28 | C[C@@H]1CN([C@H](C)CO)C(=O)c2cc(NC(=O)Nc3ccc(F)cc3)ccc2O[C@@H]1CN(C)C(=O)Nc1ccccc1 | -5 | -9 | 0.091 | -0.5
29 | CC(C)NC(=O)N(C)C[C@@H]1Oc2c(NS(=O)(=O)c3cn(C)cn3)cccc2C(=O)N([C@@H](C)CO)C[C@H]1C | -14 | -15 | 0.072 | 2.6
30 | C[C@H]1CN([C@@H](C)CO)C(=O)c2cc(NC(=O)Nc3ccc(F)cc3)ccc2O[C@@H]1CN(C)S(C)(=O)=O | -3 | -34 | -0.41 | 0.6

Remaining list, next part
item | molecule | MITF inh | Hedgehog inh | YB-1 expr inh | PD-1 reverse act
31 | COc1ccc(S(=O)(=O)Nc2cccc3c2O[C@H](CN(C)C(=O)Nc2ccc4c(c2)OCO4)[C@@H](C)CN([C@H](C)CO)C3=O)cc1 | 8 | 13 | 0.41 | 1.1
32 | N#CCCn1c2c(ccc1=O)CCCC2 | 4 | -60 | -0.4 | 4.6
33 | COc1ccc(NC(=O)N(C)C[C@H]2Oc3ccc(NC(=O)Cc4cn(C)c5ccccc45)cc3CC(=O)N([C@@H](C)CO)C[C@H]2C)cc1 | 16 | -1 | 0.14 | /
34 | C[C@]12C[C@H](O)C3C(CC[C@@H]4C[C@H](O)CC[C@]34C)C1CC[C@@H]2C(=O)CO (stereo partly specified) | -7 | -15 | 0.56 | 1.6
35 | Cc1noc(C)c1NC(=O)N(C)C[C@@H]1Oc2c(NC(=O)c3ccncc3)cccc2C(=O)N([C@@H](C)CO)C[C@@H]1C | -6 | 9 | -0.58 | 2.1
36 | Cn1c(NCCCO)nc2ccccc21 | 72 | / | / | 2.8
37 | CN1C(=O)C(Cc2ccccc2)(c2ccccc2)c2ccccc21 (stereo unspecified) | -8 | -69 | -0.6 | -1.8
38 | CC[C@H](C)/C=C(C)/C=C/C(=O)Cc1cc(O)c(C)c(O)c1C=O | 19 | -12 | -0.23 | -1.6
39 | C[C@@H]1CN([C@@H](C)CO)C(=O)c2cccc(N(C)C)c2O[C@@H]1CN(C)C(=O)Nc1ccc2c(c1)OCO2 | 7 | -12 | -0.17 | 1.5
40 | CC(C)NC(=O)Nc1ccc2c(c1)CC(=O)N([C@H](C)CO)C[C@H](C)[C@H](CN(C)C(=O)Nc1cccc3ccccc13)O2 | -11 | -29 | -0.035 | /
41 | CCOc1ccc(OCC(=O)Nc2ccc(C)cc2[N+](=O)[O-])cc1 | -29 | / | / | 2.4
42 | Cc1noc(C)c1S(=O)(=O)N(C)C[C@@H]1Oc2ccc(N(C)C)cc2CC(=O)N([C@H](C)CO)C[C@@H]1C | -4 | 4 | 6.7e-05 | /
43 | O=C1C2=C(Nc3ccccc3S(=O)(=O)C2c2ccc(Cl)cc2)c2ccccc21 (stereo unspecified) | 62 | / | -0.22 | -3.9
44 | C[C@@H]1CN([C@@H](C)CO)C(=O)Cc2cc(NS(C)(=O)=O)ccc2O[C@@H]1CN(C)Cc1ccncc1 | 1 | -14 | 0.091 | 0.9
45 | O=C(NCCCn1ccnc1)c1csc2ccccc12 | -6 | / | / | 0.9
46 | CC(C)NC(=O)Nc1cccc2c1O[C@H](CN(C)Cc1ccccc1)[C@H](C)CN([C@@H](C)CO)C2=O | 3 | 11 | 0.2 | 1.2
47 | C[C@@H]1CN([C@H](C)CO)C(=O)c2cccc(NC(=O)Nc3ccc(C(F)(F)F)cc3)c2O[C@@H]1CN(C)S(=O)(=O)c1cn(C)cn1 | -9 | -28 | -0.27 | -0.4
48 | C[C@H](CO)N1C[C@H](C)[C@@H](CN(C)C(=O)NC2CCCCC2)Oc2ccc(NC(=O)C3CCCCC3)cc2C1=O | -1 | -10 | 0.36 | 0.0
49 | Cc1noc(C)c1NC(=O)Nc1ccc2c(c1)C(=O)N([C@H](C)CO)C[C@H](C)[C@H](CN(C)S(=O)(=O)c1ccccc1)O2 | -7 | / | -0.22 | 0.3
50 | C[C@H]1CN([C@@H](C)CO)C(=O)c2cccc(NS(C)(=O)=O)c2O[C@H]1CN(C)S(=O)(=O)c1cccs1 | -8 | -20 | 0.63 | 1.1
51 | Cc1cc(Cl)c(S(=O)(=O)N2CCSCC2)cc1OCC(N)=O | 5 | / | / | 1.3
52 | C[C@H](CO)N1C[C@H](C)[C@@H](CN(C)C(=O)Nc2ccccc2)Oc2ccc(N(C)C)cc2C1=O | 0 | -36 | -0.11 | -0.9
53 | CS(=O)(=O)N(CC(=O)Nc1ccc(Cl)c(C(F)(F)F)c1)c1cccc([N+](=O)[O-])c1 | -4 | / | / | 1.2
54 | CC(C)NC(=O)Nc1ccc2c(c1)CC(=O)N([C@@H](C)CO)C[C@H](C)[C@H](CN(C)C(=O)Nc1ccc(C(F)(F)F)cc1)O2 | -14 | / | -0.3 | 1.4
55 | C[C@@H]1CCCCO[C@H](CN(C)Cc2ccc(C(=O)Nc3ccccc3N)cc2)[C@@H](C)CN([C@H](C)CO)C(=O)c2cc(NS(C)(=O)=O)ccc2O1 | -5 | / | -0.43 | -1.0
56 | Cc1noc(C)c1S(=O)(=O)Nc1ccc2c(c1)CC(=O)N([C@H](C)CO)C[C@@H](C)[C@@H](CN(C)S(=O)(=O)c1ccc(Cl)cc1)O2 | 3 | -32 | 0.13 | -3.4
57 | C[C@@H]1CN([C@@H](C)CO)C(=O)c2cccc(NC(=O)C3CC3)c2O[C@@H]1CN(C)CC1CC1 | -3 | 4 | 0.011 | 0.3
58 | C[C@H](CO)N1C[C@H](C)[C@H](CN(C)C(=O)Nc2ccccc2)Oc2ccc(NC(=O)CCC(F)(F)F)cc2C1=O | -3 | -26 | -0.52 | 0.0
59 | C[C@@H]1CN([C@H](C)CO)C(=O)Cc2cc(NC(=O)Cc3cn(C)c4ccccc34)ccc2O[C@H]1CN(C)C(=O)Nc1ccc(C(F)(F)F)cc1 | 22 | 83* | -0.11 | -2.3
60 | C[C@@H]1O[C@@H](O[C@H]2[C@@H]3C=CO[C@@H](O[C@@H]4O[C@H](CO)[C@@H](O)[C@H](O)[C@H]4O)[C@@H]3[C@@]3(CO)O[C@@H]23)[C@H](OC(=O)/C=C/c2ccc(O)cc2)[C@H](O)[C@H]1O | / | 65* | 0.94 | /
61 | O=c1c2c(-c3ccccc3)csc2nc2n1CCC2 | -2 | -20 | 0.2 | 0.9
62 | CCCCc1c(C)nc2ccc(OC)cc2c1SCC(=O)O | 6 | / | / | 0.2
63 | Cc1cc(Cl)c(S(N)(=O)=O)cc1OCC(=O)NC1CCCCC1 | 6 | / | / | -0.7

This is a subset, so the mix of outcomes need not match the whole.
